# DUX4 inh = blocks DUX4-driven transcriptional activation. 293T-iDUX4 ZSCAN4-Gaussia luciferase reporter, 24 h; hits give low values. activity change, negative = inhibition, % (no concentration beside the values). 37,000 tested, 0.8% active. AID 1224904;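 active = -10% or lower and over 25 points stronger than a control reporter; inconclusive = -10% or lower with a smaller gap; inactive = above -10%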;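 note: 0% = median of neutral control wells and -100% = median of positive control wells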
# DUX4 inh difference = also measured in DUX4 inh; calls as there; Gaussia minus Italica difference, %; measured here: selective DUX4 reporter inhibition;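 worked out from the two reporters; negative = selective loss of the DUX4 reporter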
# DUX4 inh control = also measured in DUX4 inh; calls as there; activity change, negative = inhibition, %; measured here: Italica tet-on control reporter;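 0 = neutral control and -100 = positive control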
# * = called active by the depositor; ? = inconclusive; nt = not tested or not shown. Only part of the results is shown, so the mix of outcomes need not match the whole.
SMILES,DUX4 inh,DUX4 inh difference,DUX4 inh control
O=C(C[C@@H]1CC[C@@H](NC(=O)C2CCOCC2)[C@@H](CO)O1)NCC1CCCCC1,-3,-1,-2.2
CCCNC(=O)Nc1ccc2c(c1)OC[C@H](C)N(CCC(F)(F)F)C[C@@H](C)[C@@H](OC)CN(C)C2=O,-5,-9,3.5
CCCNC(=O)N1C[C@@H](C)[C@@H](OC)CN(C)C(=O)c2cc(NS(C)(=O)=O)ccc2OC[C@H]1C,-2,0,-2.1
CCS(=O)(=O)N1CC2(CN(Cc3ccccc3F)[C@@H](CO)c3c2c2ccc(OC)cc2n3C)C1,-4,2,-5.6
CNC[C@H]1Oc2c(NC(=O)c3ccc(-c4nccs4)cc3)cccc2C(=O)N([C@@H](C)CO)C[C@H]1C,-1,-3,1.9
CO[C@@H]1CN(C)C(=O)c2ccc(NC(=O)NC(C)C)cc2OC[C@@H](C)N(S(C)(=O)=O)C[C@@H]1C,0,-3,2.6
O=C(C[C@H]1CC[C@@H]2NC[C@@H](O)COC[C@H]2O1)NCc1ccc2c(c1)OCO2,9,9,0.4
COc1ccc(C#Cc2ccc([C@@H]3[C@H](CO)N4CCCCN(C(=O)c5ccncc5)C[C@@H]34)cc2)cc1,?,nt,nt
O=C1CN(S(=O)(=O)Cc2ccccc2)C[C@H]2[C@H](c3ccc(C#Cc4ccccc4)cc3)[C@@H](CO)N12,?,nt,nt
O=C(NC[C@H]1N[C@H](CO)[C@@H]1c1ccc(-c2cncnc2)cc1)c1ccccc1F,-2,-1,-0.6
O=C(NCC[C@H]1CC[C@@H](NC(=O)c2ccc3c(c2)OCO3)[C@@H](CO)O1)Nc1cc(F)ccc1F,2,0,1.7
O=C(C1CCCCC1)N1CC2(C1)[C@H](c1ccccc1)[C@@H](CO)N2CC1CCCC1,?,nt,nt
O=C(C[C@@H]1CC[C@@H](NS(=O)(=O)c2ccccc2F)[C@@H](CO)O1)NCCCN1CCOCC1,3,4,-1.3
CN(C)CC(=O)N1CC2(C1)[C@H](c1ccccc1)[C@@H](CO)N2S(C)(=O)=O,11,9,2.4
COC(=O)C[C@@H]1C[C@@H]2c3cc(NC(=O)C4CCOCC4)ccc3O[C@@H]2[C@H](CO)O1,5,-1,5.9
C[C@@H]1CC(=O)NCC/C=C\C[C@@H](c2ccc3c(c2)OCO3)NC1=O,-1,0,-1.1
CN1C(=O)c2cc(NC(=O)c3ccc(C(F)(F)F)cc3)ccc2OC[C@@H]2O[C@@H](CC(=O)NCc3ccc4c(c3)OCO4)CC[C@H]21,-1,-1,0.8
O=C1CN(S(=O)(=O)c2ccccc2)C[C@H]2[C@H](c3ccc(C#CCc4ccccc4)cc3)[C@H](CO)N12,?,nt,nt
C[C@H](CO)N1C[C@H](C)[C@H](CN(C)Cc2ccncc2)Oc2ccc(NC(=O)NC3CCCCC3)cc2C1=O,0,0,0.1
O=C(c1ccc2c(c1)OCO2)N1C[C@H]2[C@@H](c3ccccc31)[C@@H](CO)N2CC1CCCC1,3,-4,6.8
COCC#Cc1ccc([C@H]2[C@H](CO)N3CCCCN(S(=O)(=O)c4ccccc4F)C[C@@H]23)cc1,0,-5,5.0
COc1cccc(CNC(=O)[C@H]2[C@H](CO)[C@H]3Cn4c(ccc(-c5cccnc5)c4=O)[C@@H]2N3C(C)=O)c1,4,8,-4.0
N#C[C@H]1[C@@H](c2ccccc2C2=CCCC2)[C@@H](CO)N1C(=O)Cc1ccncc1,0,-1,1.2
COCC(=O)N1CCCCN2[C@H](C1)[C@H](c1ccc(C#Cc3cccnc3)cc1)[C@@H]2CO,9,-11,20
CC(C)[C@@H]1CC=CC[C@H](C)Oc2ccccc2C(=O)N(C)[C@H](C(C)C)C(=O)N1 (mixture of isomers),0,0,0.1
C[C@H](CO)N1C[C@H](C)[C@@H](CN(C)C(=O)NC2CCCCC2)OCCCC[C@H](C)Oc2ccc(NC(=O)Cc3ccccc3)cc2C1=O,?,nt,nt
O=C(C[C@@H]1C[C@@H]2c3cc(NC(=O)Cc4ccncc4)ccc3O[C@@H]2[C@@H](CO)O1)NCc1cccc(F)c1,-5,-8,3.0
COc1ccccc1S(=O)(=O)N[C@H]1C=C[C@@H](CC(=O)NCc2cccc(F)c2)O[C@H]1CO,4,3,1.2
CN(C)C(=O)c1ccc(-c2ccc3c(c2)[C@@H]2[C@@H](CCN2C(=O)c2ccccc2)[C@H](CO)N3)cc1,-7,1,-8.3
C[C@H]1CCCCO[C@H](CN(C)S(=O)(=O)c2cccs2)[C@@H](C)CN([C@@H](C)CO)C(=O)c2cc(NC(=O)c3ccccc3)ccc2O1,-1,-2,1.6
COc1ccc(S(=O)(=O)N[C@@H]2C=C[C@@H](CC(=O)NCc3ccccc3F)O[C@@H]2CO)cc1,5,6,-1.2
COC(=O)[C@@H]1[C@@H](CO)[C@@H]2Cn3c(ccc(C4=CCCCC4)c3=O)[C@@H]2N1C(=O)C1CC1,-3,-5,2.1
O=C(C[C@H]1CC[C@H](NC(=O)C2CCOCC2)[C@@H](CO)O1)NCc1ccccc1Cl,-1,-1,0.2
CO[C@@H]1CN(C)C(=O)c2cc(NC(=O)Nc3c(C)noc3C)ccc2OC[C@@H](C)NC[C@@H]1C,4,2,2.8
O=C(Nc1ccc2c(c1)[C@H]1C[C@H](CC(=O)N3CCOCC3)O[C@H](CO)[C@H]1O2)c1cccnc1,2,0,1.9
Cc1ccc(OC(=O)N(C)C[C@@H]2OCc3ccccc3-c3ccccc3C(=O)N([C@H](C)CO)C[C@H]2C)cc1,-2,-11,9.2
CO[C@@H](CN(C)Cc1ccc2c(c1)OCO2)[C@H](C)CN(C(=O)c1ccccc1)[C@H](C)CO,-2,-4,1.9
COc1cccc(CN2CCCCN3[C@H](C2)[C@@H](c2ccc(-c4cccnc4)cc2)[C@@H]3CO)c1,0,-7,7.4
CCC(=O)N1CC(=O)N2[C@H](CO)[C@H](c3ccc(-c4cccnc4)cc3)[C@@H]2C1,2,-4,5.3
N#C[C@H]1[C@H](c2ccccc2C2=CCCCC2)[C@H](CO)N1C(=O)CN1CCOCC1,6,0,6.4
CO[C@H]1CC[C@H]2CCN(C)C(=O)[C@H](C)[C@@H](OC)CN(C)C(=O)c3cccc(C#N)c3OC[C@@H]1O2,-3,-3,-0.1
O=C(NC1CCC1)[C@@H]1[C@@H](CO)[C@@H]2Cn3c(ccc(-c4cccc(F)c4)c3=O)[C@H]1N2Cc1cocn1,2,2,0.1
C[C@H](NC(=O)C[C@@H]1C[C@H]2c3cc(NC(=O)c4cccnc4)ccc3O[C@H]2[C@@H](CO)O1)c1ccccc1,4,1,2.8
O=C(C[C@H]1C[C@H]2c3cc(NC(=O)C4CCC4)ccc3O[C@H]2[C@H](CO)O1)NCc1cccc(F)c1,-2,-1,-1.5
COc1ccc2c3c(n(C)c2c1)[C@H](CO)N(C(=O)c1ccc(F)cc1)CC31CN(C(=O)Nc2ccc(F)cc2)C1,14,-1,15
O=C(C[C@@H]1CC[C@H]2[C@@H](COC[C@@H](O)CN2Cc2ccc(Oc3ccccc3)cc2)O1)N1CCOCC1,-8,4,-12
O=C(C[C@H]1CC[C@H]2[C@@H](COC[C@H](O)CN2C(=O)c2ccccc2)O1)NCCCN1CCOCC1,9,0,9.6
CO[C@@H]1CN(C)C(=O)c2ccc(NS(=O)(=O)c3ccc(C)cc3)cc2OC[C@H](C)N(C)C[C@@H]1C,8,4,3.7
CC=Cc1ccc2n(c1=O)C[C@@H]1[C@@H](CO)[C@H](C(=O)N3CCC(Cc4ccccc4)CC3)N(CC)[C@H]21 (mixture of isomers),-1,-3,1.4
CO[C@H]1CC[C@H]2CCOc3c(C#N)cccc3C(=O)N(C)CCCC(=O)N(C)C[C@@H]1O2,2,3,-0.3
COC(=O)[C@H]1[C@H](CO)[C@H]2Cn3c(ccc(C4=CCCCC4)c3=O)[C@H]2N1C(=O)C1CCC1,2,-4,6.3
C[C@@H]1CN([C@H](C)CO)C(=O)CCCn2cc(nn2)CO[C@H]1CN(C)S(=O)(=O)c1ccc(Cl)cc1,5,5,0.0
CCC(=O)N1CC2(CN[C@@H](CO)c3c2c2ccc(OC)cc2n3C)C1,20,7,13
CN(C)C(=O)C[C@H]1CC[C@@H](NC(=O)C2CCOCC2)[C@@H](CO)O1,8,8,-0.6
COC(=O)C[C@H]1CC[C@@H]2[C@@H](COc3ccc(NC(=O)Nc4ccc(Cl)cc4)cc3C(=O)N2C)O1,4,2,1.7
Cc1noc(C)c1NC(=O)Nc1ccc2c(c1)C(=O)N([C@@H](C)CO)C[C@H](C)[C@H](CN(C)S(=O)(=O)c1ccc(F)cc1)O2,-1,-3,1.6
CCCN(C)C[C@@H]1OCCCC[C@@H](C)Oc2ccc(NC(=O)CCCN(C)C)cc2C(=O)N([C@H](C)CO)C[C@@H]1C,3,-2,5.1
O=C(c1ccncc1)N1CC(=O)N2[C@@H](CO)[C@H](c3ccc(C#CCC4CCCC4)cc3)[C@@H]2C1,-2,-8,6.6
O=C(C1CCC1)N1C[C@@H]2[C@H](c3ccccc31)[C@H](CO)N2Cc1ccccc1,2,-1,3.9
CS(=O)(=O)N1[C@@H]2Cn3c(ccc(-c4ccccc4)c3=O)[C@H]1[C@@H](C(=O)NCC1CC1)[C@@H]2CO,-5,0,-4.6

# Copied from the results shown for reference:
SMILES,DUX4 inh,DUX4 inh difference,DUX4 inh control
O=C(NC1CCC1)[C@@H]1[C@@H](CO)[C@@H]2Cn3c(ccc(-c4cccc(F)c4)c3=O)[C@H]1N2Cc1cocn1,2,2,0.1
C[C@H](NC(=O)C[C@@H]1C[C@H]2c3cc(NC(=O)c4cccnc4)ccc3O[C@H]2[C@@H](CO)O1)c1ccccc1,4,1,2.8
O=C(C[C@H]1C[C@H]2c3cc(NC(=O)C4CCC4)ccc3O[C@H]2[C@H](CO)O1)NCc1cccc(F)c1,-2,-1,-1.5
COc1ccc2c3c(n(C)c2c1)[C@H](CO)N(C(=O)c1ccc(F)cc1)CC31CN(C(=O)Nc2ccc(F)cc2)C1,14,-1,15
O=C(C[C@@H]1CC[C@H]2[C@@H](COC[C@@H](O)CN2Cc2ccc(Oc3ccccc3)cc2)O1)N1CCOCC1,-8,4,-12
O=C(C[C@H]1CC[C@H]2[C@@H](COC[C@H](O)CN2C(=O)c2ccccc2)O1)NCCCN1CCOCC1,9,0,9.6
CO[C@@H]1CN(C)C(=O)c2ccc(NS(=O)(=O)c3ccc(C)cc3)cc2OC[C@H](C)N(C)C[C@@H]1C,8,4,3.7
CC=Cc1ccc2n(c1=O)C[C@@H]1[C@@H](CO)[C@H](C(=O)N3CCC(Cc4ccccc4)CC3)N(CC)[C@H]21 (mixture of isomers),-1,-3,1.4
CO[C@H]1CC[C@H]2CCOc3c(C#N)cccc3C(=O)N(C)CCCC(=O)N(C)C[C@@H]1O2,2,3,-0.3
COC(=O)[C@H]1[C@H](CO)[C@H]2Cn3c(ccc(C4=CCCCC4)c3=O)[C@H]2N1C(=O)C1CCC1,2,-4,6.3

# (further entries)
SMILES,DUX4 inh,DUX4 inh difference,DUX4 inh control
Cc1ccc(-c2ccc([C@H]3[C@H](CO)N4CCCCN(S(=O)(=O)c5ccccc5C)C[C@@H]34)cc2)cc1,?,nt,nt
COc1ccc(S(=O)(=O)N2CCCCN3[C@H](CO)[C@@H](c4ccc(C#CC(C)C)cc4)[C@H]3C2)cc1,-32*,-28*,-3.7*
CCCNC(=O)N1CCC2(CC1)CN(C(=O)CC1CC1)[C@@H](CO)c1[nH]c3cc(OC)ccc3c12,22,2,20
CCCN1[C@@H]2c3ccc(-c4ccccc4F)c(=O)n3C[C@H]1[C@H](CO)[C@H]2C(=O)NCC,-1,-5,4.4
O=S(=O)(c1cccc(F)c1)N1CC[C@@H]2[C@H](CO)Nc3ccc(C#Cc4ccccc4F)cc3[C@@H]21,?,nt,nt
C/C=C/c1ccc([C@@H]2[C@H](CO)N(Cc3ccccn3)[C@H]2CNC(=O)CC)cc1,-2,-4,1.5
COc1cccc(S(=O)(=O)Nc2ccc3c(c2)[C@H]2C[C@@H](CC(=O)NCCc4ccccc4)O[C@@H](CO)[C@H]2O3)c1,-4,0,-4.2
CCCC(=O)Nc1ccc2c(c1)OC[C@@H](C)N(S(=O)(=O)c1cn(C)cn1)C[C@@H](C)[C@H](OC)CN(C)C2=O,1,-2,2.9
O=C(C[C@@H]1CC[C@@H]2[C@H](COC[C@H](O)CN2C(=O)c2ccccn2)O1)NC1CCC1,0,-10,10.0
CN(C)C(=O)c1cccc(-c2ccc([C@@H]3[C@H](C#N)N(C(=O)C4CC4)[C@H]3CO)cc2)c1,2,3,-1.3
CCCNC(=O)N(C)C[C@H]1Oc2ncc(C#CC3CCCCC3)cc2C(=O)N([C@@H](C)CO)C[C@H]1C,-3,0,-3.0
CO[C@@H](CN(C)Cc1cc(F)ccc1F)[C@H](C)CN(C(=O)Nc1ccc(C(F)(F)F)cc1)[C@H](C)CO,2,7,-4.5
CCN1[C@H](C(=O)NCc2ccccc2)[C@@H](CO)[C@@H]2Cn3c(ccc(-c4ccccc4)c3=O)[C@@H]21,-3,1,-4.4
C[C@@H](NC(=O)C[C@@H]1CC[C@H]2[C@@H](COC[C@H](O)CN2C(=O)Nc2cccc(F)c2)O1)c1ccccc1,3,1,2.2
CCCNC(=O)[C@@H]1[C@@H](CO)[C@@H]2Cn3c(ccc(C4=CCCC4)c3=O)[C@@H]2N1C(=O)CC1CC1,2,-4,6.2
C[C@H](CO)N1C[C@H](C)[C@@H](CN(C)Cc2ccc3c(c2)OCO3)OCc2cnnn2CCCC1=O,12,7,4.9
CS(=O)(=O)N1CC(=O)N2[C@H](C1)[C@@H](c1ccc(C#CC3CCCC3)cc1)[C@@H]2CO,2,-7,8.6
COc1ccccc1S(=O)(=O)N(C)C[C@@H]1Oc2ncc(-c3ccc(C)cc3)cc2C(=O)N([C@@H](C)CO)C[C@H]1C,?,nt,nt
CCC(=O)N1[C@H](CO)[C@H](c2ccc(-c3ccccc3)cc2)[C@H]1CNC(=O)C1CC1,-2,-3,0.8
O=C(C[C@@H]1C[C@@H]2c3cc(NC(=O)c4ccc5c(c4)OCO5)ccc3O[C@@H]2[C@@H](CO)O1)NCc1cccc(F)c1,?,nt,nt
